HPGD inh – HPGD (human) dehydrogenase inhibition. P15428. purified HPGD, NADH fluorescence kinetic, PGE2 substrate. Potency, µM, without a hit: top-dose activity change, negative = inhibition, actives largely listed as inhibitors. hit rate 4.3% among 150,000; active = well fitted inhibition curve with a large enough effect (not every such curve was filed as active); inconclusive = small, poorly fitted or top-dose-only effect, or another doubt; inactive = no such curve, though single readings can be large or run the other way;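 also: top concentration of the series not given in the record; plate controls included wells without enzyme; inactives centre near -10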
Target sequence (P15428 whole entry, looked up): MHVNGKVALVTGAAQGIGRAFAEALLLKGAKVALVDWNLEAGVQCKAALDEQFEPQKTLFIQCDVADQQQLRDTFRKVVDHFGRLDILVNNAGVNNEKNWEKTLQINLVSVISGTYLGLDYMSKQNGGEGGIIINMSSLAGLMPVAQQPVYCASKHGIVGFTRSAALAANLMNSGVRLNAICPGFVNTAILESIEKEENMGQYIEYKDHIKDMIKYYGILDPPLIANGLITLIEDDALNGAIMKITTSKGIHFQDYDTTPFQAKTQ
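20 nM HPGD preincubated 15 min at room temperature with compound in 50 mM Tris-HCl pH 8, 0.01% Tween 20. Started with 1 mM NAD+ and 30 uM prostaglandin E2; NADH fluorescence (360/450 nm) read 5 times over 30-s intervals, last minus first.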
* marks the source's active call; other numbers are inactive results; u = inconclusive; & = joins results of further samples. % is scaled to controls: 0 for no effect and ±100 for the full control effect; potency is read from the fitted curve at half-maximal effect.

The opening 15 compounds, ahead of the listing:
SMILES	HPGD inh
CC(c1ccccc1)n1c(SCC(=O)N2CC(=O)Nc3ccccc32)nc2ccccc2c1=O (configuration not stated)	-10%
COc1ccc(C(=O)N2CCN(Cc3ccccc3C)CC2)cc1OC	4%
c1ccc(OCCOc2ccccc2-c2nnco2)cc1	-7%
O=C(NCCN1CCOCC1)c1cc(-c2ccc(Cl)cc2)on1	-9%
N[C@H](C(=O)O)[C@@H]1C[C@@H]1C(=O)O	-2%&-8%
COc1ccc(OC)c(-c2ccc(C(=O)O)o2)c1	u
CCN1CCN(c2ncc(C(=O)N3CCCc4ccccc43)c3ccccc23)CC1	-10%
COc1ccc(N2CCN(C(c3cccs3)C(C)NC(=O)c3ccco3)CC2)cc1 (configuration not stated)	-1%
O=C(NCc1ccccc1Cl)c1cnc2n(c1=O)CCS2	-25%
NC(=O)CNCCC(c1ccccc1)c1ccccc1	-13%&-9%
Cn1c(=O)c2c(nc(CN3CCN(C(=O)c4ccco4)CC3)n2Cc2ccccc2F)n(C)c1=O	-8%
C/C(=N\NC(=S)Nc1ccc(F)cc1)c1ccc2c(c1)OCCO2	-12%
CCCc1nn(C)c(C(=O)Nc2cccc(Cl)c2)c1Cl	-12%
O=C1C=CC(=Nc2cccc3c(N=C4C=CC(=O)O4)cccc23)O1	u
CC(OC(=O)c1oc2ccccc2c1CSC1CCCCC1)C(=O)NC(N)=O (configuration not stated)	-17%

Main list, from the first entry:
SMILES	HPGD inh
CC(c1ccccc1)n1c(SCC(=O)N2CC(=O)Nc3ccccc32)nc2ccccc2c1=O (configuration not stated)	-10%
COc1ccc(C(=O)N2CCN(Cc3ccccc3C)CC2)cc1OC	4%
c1ccc(OCCOc2ccccc2-c2nnco2)cc1	-7%
O=C(NCCN1CCOCC1)c1cc(-c2ccc(Cl)cc2)on1	-9%
N[C@H](C(=O)O)[C@@H]1C[C@@H]1C(=O)O	-2%&-8%
COc1ccc(OC)c(-c2ccc(C(=O)O)o2)c1	u
CCN1CCN(c2ncc(C(=O)N3CCCc4ccccc43)c3ccccc23)CC1	-10%
COc1ccc(N2CCN(C(c3cccs3)C(C)NC(=O)c3ccco3)CC2)cc1 (configuration not stated)	-1%
O=C(NCc1ccccc1Cl)c1cnc2n(c1=O)CCS2	-25%
NC(=O)CNCCC(c1ccccc1)c1ccccc1	-13%&-9%
Cn1c(=O)c2c(nc(CN3CCN(C(=O)c4ccco4)CC3)n2Cc2ccccc2F)n(C)c1=O	-8%
C/C(=N\NC(=S)Nc1ccc(F)cc1)c1ccc2c(c1)OCCO2	-12%
CCCc1nn(C)c(C(=O)Nc2cccc(Cl)c2)c1Cl	-12%
O=C1C=CC(=Nc2cccc3c(N=C4C=CC(=O)O4)cccc23)O1	u
CC(OC(=O)c1oc2ccccc2c1CSC1CCCCC1)C(=O)NC(N)=O (configuration not stated)	-17%
CCC(C)C(NC(=O)c1ccccc1NC(=O)c1ccco1)C(=O)O (configuration not stated)	-7%
Cc1ccc(-c2nc3ncccn3c2NC(=O)C2CC2)cc1	u
COc1ccc2c(c1)O[C@@H](c1ccc3c(c1)OCO3)[C@H](OC(=O)NCCOc1ccccc1)C2=O	-5%
O=C(O)c1cc2ccccc2c(=O)s1	-23%
CCOc1cc(CNn2cnnc2)ccc1OCC(=O)NC1CCCCC1	-6%
CCN(CC)CCN1C(=O)C(=O)/C(=C(/O)c2cnn(-c3ccccc3)c2C)C1c1cccnc1 (configuration not stated)	-11%
CCC(C)(C)n1nnnc1CN(Cc1cccs1)Cc1cc2cc(OC)ccc2[nH]c1=O	-24%
Cc1cccnc1NC(=O)C1c2ccccc2Oc2ccccc21	-9%
CC1Cc2cccc3c(O)c(C(=O)c4nn[nH]n4)c(=O)n1c23 (configuration not stated)	4%
O=S(=O)(NCc1ccccc1)c1cnc[nH]1	-4%
Oc1ccccc1C1=NOC(O)(C(F)F)C1 (configuration not stated)	16µM*
Cc1ccc(CSc2ncnc3c2cnn3-c2ccc(C)cc2)cc1	u
O=C1CC(c2ccco2)Cc2c1cnn2-c1nc2ccccc2s1 (configuration not stated)	-14%
O=S(=O)(NCC(c1cccnc1)N1CCN(c2ccccc2)CC1)c1cccs1 (configuration not stated)	-11%
N#Cc1c[nH]n2c(=O)cc(Cc3ccccc3)nc12	u
Cc1[nH]n2c(=O)c3c(nc2c1-c1ccc(Cl)cc1)CCC3	u
Cn1c(=O)[nH]c(=O)c2c1nc1n2CCN1Cc1ccccc1	-3%
NCCCCCCCCCCNS(=O)(=O)c1cccc2c(Cl)cccc12	2%
Cc1[nH]n2c(=O)c3c(nc2c1-c1ccccc1)CCCC3	-20%
Cc1cc2c3c(c1)C1(C(=O)N3C(C)(C)CC2C)C(C#N)=C(N)OC2=C1C(=O)CC(C)(C)C2 (configuration not stated)	-2%
COc1cc(C)ccc1N(CCCN1C(=O)c2cccc3cccc(c23)C1=O)C(=O)c1cccs1	u
CCc1ccc(C2(C)SC(NC(C)=O)=NN2C(C)=O)cc1 (configuration not stated)	-9%
Clc1ccc(-c2nnc(SCc3nc4ccccc4[nH]3)o2)c(Cl)c1	-18%
O=C(CSc1nnc(-c2cccs2)n1-c1ccccc1)Nc1ccccc1	-14%
CCOC(=O)C1CCN(C=Nc2cc(C)on2)CC1	0%
Cc1cccc(C(=O)N2CCCN(C(=O)c3cccc(C)c3)CC2)c1	5%
Cc1cccc(OCc2nnc(SCC(=O)N3CCCC3)n2C)c1	-5%
Cc1ccc(SCCC(=O)NC(C)C)cc1	u
Cc1cccc(N2CCN(C(=O)Cn3cccc3)CC2)c1C	-13%
NC(=S)N/N=C/c1ccccc1	-14%
COc1cc(NS(=O)(=O)c2ccc(NC(=S)NC(=O)c3sc4cc(F)ccc4c3Cl)cc2)nc(OC)n1	16µM*
COCCOC(=O)C1=C(C)NC(=O)NC1c1cn(-c2ccccc2)nc1-c1cccs1 (configuration not stated)	-4%
O=C1CC(C(=O)Nc2ccccc2C(=O)O)C(c2ccccc2)O1 (configuration not stated)	-6%
Cn1c(=NC(=O)CCl)sc2ccccc21	-12%
O=C(CC1SC(=Nc2ccc(OC(F)F)cc2)N(CCC2=CCCCC2)C1=O)Nc1ccccc1F (configuration not stated)	-27%
Going on with the list.
SMILES	HPGD inh
Cc1sc(NC(=O)C2C3CCC(O3)C2C(=O)O)c(C(=O)OC(C)C)c1-c1ccc(Cl)cc1 (configuration not stated)	35µM*
COc1ccc(S(=O)(=O)Nc2c(C)n(C)n(-c3ccccc3)c2=O)cc1	-9%
Cc1ccc(NC(=S)NC(=O)c2ccc(-c3ccccc3)cc2)c(C)c1	-7%
CCCCN(CC)C(=O)Cn1cnc2ccc(S(=O)(=O)N3CCC(C)CC3)cc2c1=O	-4%
CCc1nnc(SCC(=O)Nc2ccc(N3CCOCC3)cc2)o1	-5%
C/C(=N/NC(=O)c1ccc(C)s1)c1cccc(NC(=O)COc2ccc(Cl)cc2Cl)c1	-30%
CCOc1ccc(NC(=S)NC(=O)c2c(Cl)c(C)nn2C)c([N+](=O)[O-])c1	-1%
CC(C)N1C[C@@]23C=C[C@@H](O2)C(C(=O)OCc2ccccc2)[C@H]3C1=O (some centres not stated)	-4%
Cc1cccc(N(CC(=O)NCC2CCCO2)C(=O)CCC(=O)Nc2cc(C)on2)c1 (configuration not stated)	-7%
Cc1occc1C(=O)N1CCN(c2ncccn2)CC1	-5%
Cc1ccc(OCC(=O)NCC(=O)n2nc(C)cc2C)cc1	-2%
Cc1c(C(=O)c2ccc(Cl)c(Cl)c2)cnc2cc3c(cc12)OCO3	-28%
C[N+](C)(C)CCOP(=O)([O-])OC[C@H](O)CO	-5%
Cc1cccnc1NC(=O)Nc1ccc(F)cc1	-12%
O=S(=O)(c1ccc(Oc2ccc(Cl)cc2)c(S(=O)(=O)N2CCCCC2)c1)N1CCCCC1	-8%
COc1ccc(NC(=O)c2oc3ccccc3c2NC(=O)C2CC2)cc1	u
CCN(CC)S(=O)(=O)c1ccc(NC2c3ccccc3C(=O)N2c2ccc(C)cn2)cc1 (configuration not stated)	-12%
CCSc1ccccc1C(=O)N1CCN(c2ccccc2F)CC1	-4%
O=C(CSC(=S)N1CCOCC1)N1N=CCC1c1ccccc1 (configuration not stated)	1%
O=C(Nc1nc(-c2ccccc2)c(-c2ccccc2)s1)c1ccc(S(=O)(=O)N2CCCCC2)cc1	u
COC(=O)c1ccccc1	-5%
C=CCNC(=O)CC(=O)N/N=C/c1cccc(Br)c1	-26%
CN(/N=C/c1c[nH]c2ccccc12)c1cnn(-c2ccc(F)c(Cl)c2)c(=O)c1Cl	-5%
Cc1cc(=O)n2[nH]c(-c3ccco3)nc2n1	-17%
CCOc1ccc(NC(=O)c2cnccn2)cc1	-20%
COc1cc(/C=C/C(=O)O)cc(S(=O)(=O)Nc2ccccc2SC)c1OC	-7%
COc1ccc(-c2noc(CN3CCN(c4ccccc4F)CC3)n2)cc1OC	-13%
CC(C)(Oc1ccc(Cl)cc1)C(=O)N/N=C/c1cn[nH]c1-c1ccccc1	-28%
COc1ccc(-c2nc(N)nc(C)c2Oc2ccccc2Br)c(O)c1	-20%
O=C1CSC(=O)N1CCOCCN1C(=O)CSC1=O	-5%
O=C(Nc1ccc2c(c1)OCCO2)c1ccccc1F	u
Cc1cc(C)c2c(SCc3ccc(Cl)cc3Cl)nc(N)nc2n1	-5%
CCc1cccc(NC(=O)Cn2cc3c(n2)CCCC3)c1	-12%
N=C1SC(c2ccccc2)C(=O)N1c1ncc(Cc2ccccc2Cl)s1 (configuration not stated)	u
CC(=O)c1sc(-c2c(C)nc3sccn23)nc1C1CCCC1	-13%
CC1(C)C2CCC1(C)C(NC(=O)CCN1CCCCC1)C2 (configuration not stated)	2%
COc1ccc(Cl)cc1NC(=O)N1CCN(S(C)(=O)=O)CC1	-1%
CCOc1ccc(OCCOCCn2ccnc2)cc1	2%
O=C1CCc2cc(S(=O)(=O)N3CCN(c4ccccc4F)CC3)ccc2N1	-3%
O=C1c2oc3ccc(Cl)cc3c(=O)c2C(c2ccco2)N1CCN1CCOCC1 (configuration not stated)	-23%
C=CCn1c(CCCNC(=O)CCC)nc2ccccc21	-18%
COc1ccc(C2CC(=O)C(C=NCCN3CCOCC3)=C(O)C2)cc1 (configuration not stated)	-5%
CCOC(=O)c1cnc2ccc(OCC)cc2c1N1CCN(c2ccccc2)CC1	-5%
CCN(CC(=O)Nc1ccc(N2CCOCC2)cc1)Cc1nc2ccccc2c(=O)[nH]1	-25%
O=C(c1ccc(NC(=O)C2(c3ccccc3)CCOCC2)cc1)N1CCOCC1	-13%
NC(=O)c1ccc(N=Cc2ccc([N+](=O)[O-])s2)cc1	-5%
CSCCC(NC(N)=O)C(=O)N(C)CC(=O)Nc1ccc(C)cc1 (configuration not stated)	1%
CCOC(=O)CCc1c(C)nc(SCCN2CCCC2)c(C#N)c1C	-5%
CCOC(=O)N/N=C1\CCc2ccccc21	-12%
Oc1c(Cl)cc(CN(Cc2cc(Cl)c(O)c(Cl)c2)C2CCCCC2)cc1Cl	-3%
(further entries)
SMILES	HPGD inh
CN(C)C=C1C(=O)c2ccccc2C1=O	-6%
CCCSc1nnc2nc(C)cc(C)n12	-6%
O=C(C1CCN(S(=O)(=O)c2ccc(F)cc2)CC1)N1CC=C(c2ccccc2)CC1	-19%
CC(=O)N[C@H]1C(O[C@@H]2O[C@H](C[C@@H](O)[C@H]3O[C@@H](N4CCC(=O)NC4=O)[C@H](O)[C@@H]3O)[C@H](O)[C@H](O)[C@H]2NC(=O)/C=C/CCCCCCCCCCC(C)C)OC(CO)[C@@H](O)[C@@H]1O (some centres not stated)	-3%
Cc1cccc(C)c1NC(=O)CC(NCc1ccco1)C(=O)O (configuration not stated)	-11%
COc1ccc(C(=O)NNC(=O)CN2CCN(c3nc(-c4ccccc4)cs3)CC2)cc1	-18%
CCOC(=O)C1=C(C)NC(=O)NC1c1ccccc1 (configuration not stated)	-12%
O=C(O)c1ccc2c(c1)N(Cc1ccccc1F)C(=O)c1ccccc1S2=O (configuration not stated)	-3%
O=C(CCN1CCCCCC1)Nc1cccc(F)c1	-14%
Cc1cc(C)nc(NS(=O)(=O)c2ccc(N/C=C/C(=O)c3ccc(Cl)cc3)cc2)n1	-17%
CCN1C(=O)/C(=C2/C(=O)N3c4c(cc(OC(C)=O)cc42)C(C)=CC3(C)C)SC1=S	-6%
COc1ccccc1CNC(=O)C(C)NS(=O)(=O)c1ccccc1 (configuration not stated)	u
Cc1cc(C)cc(C(=O)N(C)[C@H](Cc2ccc(-c3ccccc3)cc2)C(=O)N[C@@H](Cc2c[nH]c3ccccc23)C(=O)O)c1	6%
CC(C)C1OC2(C)OC(=N)C1(C#N)C(C#N)(C#N)C2c1ccccc1 (configuration not stated)	u
Cc1nc(N2N=C3/C(=C/c4ccc(F)cc4)CCCC3C2c2ccc(F)cc2)sc1C(=O)N(C)C (configuration not stated)	u
COCCCNC(=O)c1c(-c2ccccc2)noc1C	-13%
COc1ccc(S(=O)(=O)Nc2c(C(=O)O)[nH]c3ccccc23)c(OC)c1	0%
COc1cccc(C(=O)CN(C(=O)c2ccc(Cl)c(Cl)c2)N2C(=O)C3CCCCC3C2=O)c1 (configuration not stated)	-12%
O=C(c1ccc(-n2cnnn2)cc1)N1CCCCC1	16µM*
CCN(CC)c1ccc(C=Nc2ccc(C)cc2)c(O)c1	-25%
COc1ccccc1NC(=O)Cn1c(=O)sc2ccccc21	-6%
CCSc1nc(O)c(Cc2ccccc2)c(=O)[nH]1	-8%

Pulled one by one from above, 2 records:
SMILES	HPGD inh
CSCCC(NC(N)=O)C(=O)N(C)CC(=O)Nc1ccc(C)cc1 (configuration not stated)	1%
CCN(CC(=O)Nc1ccc(N2CCOCC2)cc1)Cc1nc2ccccc2c(=O)[nH]1	-25%

Compound activity from PubChem.

An excerpt; the hit share may differ from the screen's.
